High-throughput results (PubChem)
Vaccinia mCherry: qHTS for Stage-Specific Inhibitors of Vaccinia Orthopoxvirus: mCherry Reporter Primary qHTS. Vaccinia virus mCherry reporter infection, fluorescence; about a quarter of the inactives have no number. Potency, µM (top dose mostly 36.5 µM), for the others: at the top dose activity change, negative = inhibition, most hits filed as inhibitors. actives 0.63% (n = 310,000). AID 720579, 2013; active = well fitted inhibition curve with a large enough effect; inconclusive = small, poorly fitted or top-dose-only effect; inactive = no such curve, though single readings can be large or run the other way; tested in A549 cells; note: nearly all actives have a fitted effect of over 35% in size; inactives centre near -10
Vaccinia Venus: qHTS for Stage-Specific Inhibitors of Vaccinia Orthopoxvirus: Venus Reporter Primary qHTS | actives 0.46% (n = 330,000) | Vaccinia virus Venus reporter expression, fluorescence | Potency, µM (doses to about 36.5 µM), for inactives: at the highest dose activity change, negative = inhibition, hits mostly inhibitors; active means well fitted inhibition curve with a large enough effect; inconclusive means small, poorly fitted or top-dose-only effect; inactive means no such curve, though single readings can be large or run the other way; tested in A549 cells; note: nearly all actives have a fitted effect of over 30% in size; inactives centre near -10
* hit, by the source's call; i = inactive; ? = inconclusive; / = not tested or not shown; & = joins results of further samples; [ ] = another dose, or the depositor's remark. % is set by controls: 0 for no effect and ±100 for the full control effect; potency is the fitted concentration of half-maximal effect.

SMILES	Vaccinia mCherry	Vaccinia Venus
CC(=O)Nc1ccccc1OCC(=O)NC(C)c1ccc(F)cc1 (centres undefined)	-3%	-16%
CCS(=O)(=O)Nc1ccc(C2=NN(C(=S)Nc3ccccc3)C(c3ccco3)C2)cc1 (centres undefined)	-13%	-16%
CCCCOc1ccc(CNn2c(C)nc3ccccc3c2=O)cc1	-5%	-4%
COc1ccc(NC(=O)CCN2CCCCCC2)c(OC)c1	i	-8%
OC(c1ccccc1)C(NCc1ccccc1)c1ccccc1 (centres undefined)	-15%	-3%
O=S(=O)(Nc1ccncc1)c1ccccc1	-9%	3%
O=C(Nc1ccccc1)Nc1ccc(F)c([N+](=O)[O-])c1	-20%	?
O=C(NC(=S)NCCc1ccccc1)c1ccco1	i	-10%
Cc1noc(C)c1S(=O)(=O)N1CCC(C(=O)N2CCC(N3CCCCC3)CC2)CC1	9%	-4%
CC(NC(=O)c1cccc(OC2CCN(C(=O)C3CC3)CC2)c1)c1ccc(F)cc1 (centres undefined)	i	-20%

Part of the list above, with two lines to a compound:
Below each compound – Vaccinia mCherry	Vaccinia Venus
O=S(=O)(Nc1ccncc1)c1ccccc1
  -9%	3%
O=C(Nc1ccccc1)Nc1ccc(F)c([N+](=O)[O-])c1
  -20%	?
O=C(NC(=S)NCCc1ccccc1)c1ccco1
  i	-10%

Later entries.
SMILES	Vaccinia mCherry	Vaccinia Venus
CCOc1cccc(/C(O)=C2/C(=O)C(=O)N(CCN3CCOCC3)C2c2cccnc2)c1 (centres undefined)	-2%	-2%
c1ccc(-c2cnc(-c3ccccc3)nc2)cc1	-12%	-5%
CC1(C)N=C(/C=N/O)C=[N+]1[O-]	/	-18%
CCSc1ccc([C@@H]2[C@@H]3C(=O)N(CC)C(=O)[C@@H]3[C@]3(C(=O)OC)CCCCN23)cc1	-14%	-23%
COc1cccc(C(=O)OCC(=O)Nc2cc(C)on2)c1OC	i	-10%
CCC(=O)Nc1cccc(C2=NOC3(C2)C[C@@H](C(N)=O)N(C(=O)COc2ccc(Cl)cc2)C3)c1 (some centres undefined)	-8%	-2%
COc1ccccc1C(=O)COC(=O)CNC(=O)c1ccc(Br)o1	-10%	-1%
COc1ccc(OCc2ccc(-c3nc(C#N)c(N4CCC(C(N)=O)CC4)o3)o2)cc1	-3%	1%
Cc1ccc(SCCOCCN2CC(C)OC(C)C2)cc1 (centres undefined)	i	5%
Cc1ccc(/C=N\NC(=O)C2COc3cc4ccccc4cc3O2)o1 (centres undefined)	/	-10%

Following part:
SMILES	Vaccinia mCherry	Vaccinia Venus
O=C(CN1c2ccccc2Sc2ccccc21)N/N=C/c1ccc([N+](=O)[O-])cc1	-25%	?
CCN(CC)S(=O)(=O)c1cc(C(=O)Oc2cccc(-c3cnc4ccccc4n3)c2)ccc1OC	-15%	-12%
Cn1c(=O)c2cccnc2c(=O)n1C	-13%	-4%
CCc1ccccc1NC(=O)C1=CC(c2ccc(OC)c(OC)c2)=NS(=O)(=O)N1C	-8%&-5%	-8%&1%
CCOC(=O)N1CCN(c2ccc(F)cc2[N+](=O)[O-])CC1	-19%	-25%
COc1ccccc1NC(=O)Nc1nc(CC(=O)Nc2ccc(F)cc2)cs1	?	-23%
CC1=C(C(=O)N(C)C)CC(CC(=O)NCCN2CCOCC2)C(=O)N1CCC1=CCCCC1 (centres undefined)	-4%	-7%
CC(=O)c1c(C)[nH]c(C(=O)Nc2ccc(C)cn2)c1C	i	-16%
COc1ccc(N2CCN(c3ncnc4scc(-c5ccc(F)cc5)c34)CC2)cc1	i	-24%
COC(=O)[C@@H]1CCCN1C(=O)c1cc(COc2cccc3cccnc23)on1	-12%	3%

(continued)
SMILES	Vaccinia mCherry	Vaccinia Venus
COc1cc2[nH]c(C)c(-c3ccccc3)c(=O)c2cc1Cl	-23%	-9%
Cc1nn(C)cc1CNC(=O)c1cccc(Br)c1	-8%	-8%
CCOC(=O)c1[nH]c(C)c(/C(O)=C2\C(=O)C(=O)N(CCN(C)C)C2c2ccncc2)c1C (centres undefined)	/	-3%
CCCn1nnnc1SCC(=O)N1CCN(C(=O)c2ccco2)CC1	-21%	-22%
O=C(/C=C/N1CCOCC1)c1ccc(-c2ccccc2)cc1	i	-7%
COc1cccc(OC)c1C(=O)OCC(=O)NCC(C)C	i	-16%
COC(=O)CCC(=O)Nc1sc(C)c(C)c1C(N)=O	/	2%
CC(C)(C)C(=O)Nc1nnc(COc2ccc(Cl)cc2)s1	i	-16%
COC(=O)c1cc(CSc2nnc(NC3CCCCC3)s2)oc1C	?	?
O=[N+]([O-])c1ccc(S(=O)(=O)NCC(c2ccco2)N2CCc3ccccc3C2)cc1 (centres undefined)	i	-10%

(next part)
SMILES	Vaccinia mCherry	Vaccinia Venus
Cc1ccc(C23CCC(=O)N2C(C(=O)O)CS3)c(C)c1 (centres undefined)	-17%	-13%
CCCCn1c(N)c(N(CCOC)C(=O)COC(=O)c2ccccc2OCC)c(=O)[nH]c1=O	i	-15%
Cc1ccc(CC(=O)NCCCc2ccccc2)cc1	-1%	-6%
COc1ccc(C(=O)CSc2ncnc3nc[nH]c23)cc1	i	-13%
Cc1noc(C)c1CSc1nnc2n(-c3ccccc3)c(=O)c3ccccc3n12	-23%	-8%
CCOC(=O)C1=CCC(c2cccn2C(=O)OC(C)(C)C)N(S(=O)(=O)c2ccc(C)cc2)C1 (centres undefined)	13%	-9%
Cc1ccccc1CNC(=O)C1CCCN(S(=O)(=O)N(C)c2ccc(F)cc2)C1 (centres undefined)	-15%	-7%
COc1ccc(C(=O)C2CCCN(C(=O)c3ccc(F)cc3)C2)cc1OC (centres undefined)	i	-6%
Cc1ccc(/C=N/NC(=O)c2cccs2)cc1[N+](=O)[O-]	?	-18%
O=C(COC(=O)c1n[nH]c2ccccc12)Nc1ccccc1Br	i	-13%

(cont.)
SMILES	Vaccinia mCherry	Vaccinia Venus
CCc1cccc(CC)c1NC(=O)NC1CCCCC1	i	-4%
COc1cccc(NC(=O)N2CCC(n3nnc4ccccc43)CC2)c1	-12%	-11%
CCC(=O)Nc1nn(C)c2nc3c(C)cccc3cc12	/	-20%
O=C(O)C1=C[C@@H](C2CC2)C[C@@H](OCCCCO)O1	i	-5%
Cc1nnc(SCC(=O)N/N=C/c2cc(Cl)c(O)c(Cl)c2)s1	-12%	-17%
O=C(NC1CCCC1)C1CCC(CNS(=O)(=O)c2ccccc2)CC1 (centres undefined)	3%[7.34 µM]	20%[7.34 µM]
Cc1c(C(=O)NCC2CCCO2)oc2c(Cl)cccc12 (centres undefined)	-8%	-12%
CN(CC(=O)Nc1ccc(OC(F)(F)F)cc1)S(=O)(=O)c1ccc2c(c1)CCC(=O)N2	-19%	-13%
COCCNC(=O)CSc1ccccc1C(=O)O	-2%	-6%
O=C(NCCc1ccccn1)c1cc2ccccc2o1	40%[activator]	-3%

Next section
SMILES	Vaccinia mCherry	Vaccinia Venus
CCN(CC)C(=O)C1=C(C)N(Cc2ccccc2)C(=O)C(CC(=O)NC(c2ccccc2)c2ccccc2)C1 (centres undefined)	-13%	-17%
NC(=O)CN1C(=O)C(O)(CC(=O)c2ccccc2O)c2ccccc21 (centres undefined)	8%	8%
CC(=O)N(Cc1cc(=O)[nH]c2ccccc12)c1ccc(C)cc1C	?	-4%
CC1CN(C(=O)c2ccc(CNS(=O)(=O)c3cccc(C(F)(F)F)c3)cc2)CC(C)O1 (centres undefined)	-7%	-13%
CN1CCN(CC(=O)Nc2ccc(OC(F)(F)F)cc2)CC1	-10%	-13%
C=CCOC(=O)N1Cc2ccccc2-n2nncc2C1	i	0%
O=C(Cn1ccc(=O)[nH]c1=O)Nc1ccc(O)c([N+](=O)[O-])c1	i	-4%
COc1ccc(CNC(=O)C2(C)Cc3c(-c4ccccc4)ccnc3O2)cc1OC (centres undefined)	-8%	-13%
Cc1nnc(NC(=O)CCS(=O)(=O)Cc2ccccc2)s1	-14%	-6%
Cc1ccc(NC(=O)CSc2nc3c(c(=O)[nH]2)CN(Cc2ccccc2)CC3)cc1Cl	-5%	6%

New compounds follow.
SMILES	Vaccinia mCherry	Vaccinia Venus
NC(=O)CC(NC(=O)c1ccc(Cl)cc1)C(=O)NCCc1ccc(S(N)(=O)=O)cc1 (centres undefined)	0%	0%
O=C(O)CCN1C(=O)c2ccc(NC(=O)COc3ccccc3)cc2C1=O	-15%	-5%
O=C(OCCN1CCOCC1)c1ccc(OCCN2CCOCC2)cc1	/	-27%
CC(=O)c1ccc(NC(=S)NNC(=O)NC2CCCCC2)cc1	-9%	-3%
COc1ccc(NC(=O)CSc2nc3ccccc3n2CC(=O)N2CCCCC2C)cc1 (centres undefined)	-8%	-1%
COc1ccccc1C(=O)Nc1ccc2ccccc2c1	-13%	8%
COc1cc(OC)c(OC)cc1/C=C1\C(=O)NC(=O)N(Cc2ccccc2)C1=O	-7%	2%
O=C1c2ccccc2C(=O)C1c1ccc(O)cc1	-6%	12%
CN(c1ccccc1)S(=O)(=O)c1cc(C(=O)N2CCN(c3ncccn3)CC2)ccc1Cl	?	-2%
NS(=O)(=O)c1ccc(NC2=CC(=O)C(=O)c3ccccc32)cc1	-22%	?

Carrying on:
SMILES	Vaccinia mCherry	Vaccinia Venus
Cc1cc(O)c(C(C)C)cc1NC(=O)c1ccccc1Cl	-21%	-10%
COc1ccc(OC)c(C2N=C(N)Nc3nc4ccccc4n32)c1 (centres undefined)	3%	-3%
CC(=O)Nc1ccc(OC(=O)C(CCS(C)(=O)=O)N2C(=O)c3ccccc3C2=O)cc1 (centres undefined)	i	-18%
COc1ccc(/C=N/n2c(=O)[nH]c3c([nH]c4ccc(F)cc43)c2=O)cc1CN1CCCCC1	-10%	-7%
CCOc1ccc(S(=O)(=O)NCCC(=O)OCC(=O)c2ccc[nH]2)cc1	-1%	-5%
Cc1ccc(S(=O)(=O)N2CCCCC2)cc1NC(=O)CN1CCCC1c1cccs1 (centres undefined)	-1%	-5%
CC(C(=O)Nc1ccccc1C(=O)O)n1c(C(F)(F)F)nc2ccccc21 (centres undefined)	i	-7%
Cc1ccnc(NC(=O)c2cnc(Cl)c(Cl)c2)c1	-13%	0%
COc1cccc(Cn2c3ccc(NC(=O)CC(C)C(F)(F)F)cc3c(=O)n2C)c1 (centres undefined)	-19%	?
O=C(N/N=C/c1ccc(O)cc1)c1cc(-c2ccc3c(c2)OCO3)n[nH]1	?	-15%

Next section:
SMILES	Vaccinia mCherry	Vaccinia Venus
Cc1cc(C)c(N=C2CCCN2Cc2ccccc2)c(C#N)c1	/	?
C=C(C)C(=O)Nc1cccc(C2=NOC3(C2)C[C@@H](C(N)=O)N(C(=O)C(=C)C)C3)c1 (some centres undefined)	i	-7%
Cc1cccc(NC(=O)CCc2ccccc2)c1C	-12%	-9%
O=C(COC(=O)c1ccc2ccccc2c1)NCCCc1ccccc1	-17%	-7%
COc1ccc(NC(=O)NNC(=O)c2ccccc2-n2cccc2)cc1OC	-11%	-5%
CC1(c2nnc(-c3ccncc3)o2)CC(c2cccnc2)=NO1 (centres undefined)	i	0%
O=S(=O)(c1ccccc1)N1CCC(O)(CSc2ccc(Cl)cc2)CC1	-27%	-19%
O=C1OC[C@H]2CCCN2C(=O)[C@@H](CC(=O)N(CCO)Cc2ccccc2)C/C=C\C[C@H]1Cc1ccc(F)cc1	-14%	?
CC(C)c1ccc(CNCCSc2nnnn2C)cc1	11%	-5%
CCC(=O)Nc1ccc(NC(=O)c2ccc3ccccc3c2)cc1	-4%	-5%

Later entries:
SMILES	Vaccinia mCherry	Vaccinia Venus
Cc1cc(C)c(C)c(S(=O)(=O)Nc2cccc(S(=O)(=O)Nc3ccccc3C(=O)O)c2)c1C	-20%	-16%
CCOc1ccccc1NC(=O)CSc1nc(N)c(C#N)cc1C#N	/	-16%
CCc1nc2sc3c(N4CCCCC4)ncnc3c2c2c1CCCC2	i	-3%
CCN(CC)CCOC(=O)c1ccc(NC(=O)CCCN2C(=O)S/C(=C/c3ccc(OC)cc3)C2=S)cc1	1%	21%

Compounds listed so far with an aryl thioether with sulfur outside any ring (13):
SMILES	Vaccinia mCherry	Vaccinia Venus
CCSc1ccc([C@@H]2[C@@H]3C(=O)N(CC)C(=O)[C@@H]3[C@]3(C(=O)OC)CCCCN23)cc1	-14%	-23%
Cc1ccc(SCCOCCN2CC(C)OC(C)C2)cc1 (centres undefined)	i	5%
CCCn1nnnc1SCC(=O)N1CCN(C(=O)c2ccco2)CC1	-21%	-22%
COC(=O)c1cc(CSc2nnc(NC3CCCCC3)s2)oc1C	?	?
COc1ccc(C(=O)CSc2ncnc3nc[nH]c23)cc1	i	-13%
Cc1noc(C)c1CSc1nnc2n(-c3ccccc3)c(=O)c3ccccc3n12	-23%	-8%
Cc1nnc(SCC(=O)N/N=C/c2cc(Cl)c(O)c(Cl)c2)s1	-12%	-17%
COCCNC(=O)CSc1ccccc1C(=O)O	-2%	-6%
Cc1ccc(NC(=O)CSc2nc3c(c(=O)[nH]2)CN(Cc2ccccc2)CC3)cc1Cl	-5%	6%
COc1ccc(NC(=O)CSc2nc3ccccc3n2CC(=O)N2CCCCC2C)cc1 (centres undefined)	-8%	-1%
O=S(=O)(c1ccccc1)N1CCC(O)(CSc2ccc(Cl)cc2)CC1	-27%	-19%
CC(C)c1ccc(CNCCSc2nnnn2C)cc1	11%	-5%
CCOc1ccccc1NC(=O)CSc1nc(N)c(C#N)cc1C#N	/	-16%
